Source: PubChem BioAssay
GIV-Gai inh = GIV-Galpha-i interaction inhibition | P08753 | Galpha-i3/FITC-GIV peptide fluorescence polarization, 90 min; hits give low values; scaled: aluminum fluoride 0%, vehicle 100% | percent of control (FP), % (no concentration beside the values) | hit rate 0.42% among 210,000 | AID 1224905;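 active = replicate mean at 85% of control or lower, very high polarization wells dropped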;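 also: wells of about 15 µL received 100 nL stock; the first replicate is given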
Target sequence (P08753 whole entry, looked up): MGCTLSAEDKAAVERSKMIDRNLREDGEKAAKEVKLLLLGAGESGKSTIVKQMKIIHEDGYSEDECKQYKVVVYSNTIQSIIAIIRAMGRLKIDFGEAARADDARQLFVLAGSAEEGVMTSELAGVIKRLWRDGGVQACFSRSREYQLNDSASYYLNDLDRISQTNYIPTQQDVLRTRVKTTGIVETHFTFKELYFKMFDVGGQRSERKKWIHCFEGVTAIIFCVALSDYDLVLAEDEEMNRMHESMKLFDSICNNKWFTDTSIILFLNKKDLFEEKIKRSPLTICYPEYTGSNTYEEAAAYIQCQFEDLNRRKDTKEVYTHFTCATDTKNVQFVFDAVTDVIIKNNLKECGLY
Starred values were filed as active, the others as inactive.

| GIV-Gai inh | SMILES |
| --- | --- |
| 109 | Cc1cccc(N2C(=O)C(=O)/C(=C(\O)c3ccccc3)C2c2ccc(N(C)C)cc2)c1 (centres undefined) |
| 113 | N#CCSc1nc2cc(C(=O)NCCC3=CCCCC3)ccc2c(=O)n1C1CCCCC1 |
| 103 | CC(=O)c1ccc(NC(=O)CSC2=C(C#N)C(c3cccs3)C3=C(CCCC3=O)N2)cc1 (centres undefined) |
| 108 | N#CC1CC(=O)OC12CCCCC2 (centres undefined) |
| 99 | O=C(Nc1ccccc1)c1ccc(=O)n(Cc2cccc(F)c2)n1 |
| 111 | CCN1CCN(S(=O)(=O)c2cc(-c3nc(C)cs3)n(CC(=O)N3CCCCC3)c2)CC1 |
| 99 | O=C(NCCCN1CCC(N2CCCCC2)CC1)C1CCCN(c2nc3ccccc3[nH]2)C1 (centres undefined) |
| 105 | c1ccc(Oc2nc(NCc3ccco3)nc(NCc3ccco3)n2)cc1 |
| 104 | Cc1cc(-c2cc(S(=O)(=O)N3CCN(C4CCCCC4)CC3)c(C)s2)n[nH]1 |
| 110 | C=CCOC(=O)C1=C(C)NC(SCC(=O)Nc2nccs2)=C(C#N)C1c1ccco1 (centres undefined) |
| 109 | Cc1cc(I)cc(C)c1NC(=O)C1CC(O)CN1C(=O)Oc1ccccc1 (centres undefined) |
| 105 | CCC(=O)Nc1cccc(-c2noc(C3CCCN(C(=O)c4ccc(C)c(C)c4)C3)n2)c1 (centres undefined) |
| 102 | O=C(Nc1ccc(S(=O)(=O)N2CCCCC2c2cccnc2)cc1)C1CCCCC1 (centres undefined) |
| 121 | COc1ccc(CCn2c(-c3ccc(-c4ccccc4)cc3)csc2=Nc2cccc(C(F)(F)F)c2)cc1 |
| 111 | Clc1cccc(N2CCN(c3ncnc4c3cnn4-c3ccccc3)CC2)c1 |
| 110 | CCCCOc1ccc(C2C(N3C(=O)c4ccccc4C3=O)C(=O)N2c2ccc(C)c(F)c2)cc1 (centres undefined) |
| 102 | O=S(=O)(c1ccccc1)N1CCn2cccc2C1c1ccc(F)cc1 (centres undefined) |
| 105 | Cc1ccc(C)c(Cn2nc3c(S(=O)(=O)N4CCN(c5ccc(F)cc5)CC4)cccn3c2=O)c1 |
| 101 | COc1ccc(C2CC(=O)Nc3c2cc(Br)c2ccccc32)c(OC)c1 (centres undefined) |
| 107 | CSc1sc(I)cc1/C=N/NC(=O)c1nnn(-c2nonc2N)c1-c1ccccc1 |
| 106 | COc1ccc(Nc2nc(Cl)nc(Nc3ccc(OC)c(OC)c3)n2)cc1OC |
| 109 | CCOC(=O)C1=C(CCl)OC(N)=C(C#N)C1c1ccc(F)c(Br)c1 (centres undefined) |
| 118 | COc1c(I)cccc1C1Nc2ccc3ccccc3c2C2=C1C(=O)CC(C)(C)C2 (centres undefined) |
| 102 | COc1ccc(S(=O)(=O)NC2CCN(C(=O)c3cc4ccccc4[nH]3)CC2)cc1 |
| 109 | Cc1c(C(=O)N2CCN(Cc3ccccc3)CC2)sc2ncn(CC(=O)N3CC(C)CC(C)C3)c(=O)c12 (centres undefined) |
| 106 | CCc1cccc(CC)c1NC(=O)c1cc(S(=O)(=O)N2CC3CC(C2)c2cccc(=O)n2C3)ccc1F (centres undefined) |
| 104 | CCC(=O)N1CCC(N(Cc2csc(-c3cccs3)n2)S(C)(=O)=O)CC1 |
| 98 | Cc1ccc(CNS(=O)(=O)c2cc(-c3cc(C(F)(F)F)on3)sc2C)cc1 |
| 112 | COc1ccc(-c2[nH]nc3c2C(c2cc(OC)c(OC(=O)N4CCOCC4)c(OC)c2)C(C#N)=C(N)O3)cc1 (centres undefined) |
| 111 | Cc1ccc(NC(=O)Cn2cnc3sc(C(=O)N4CCN(c5ccccc5)CC4)c(C)c3c2=O)cc1Cl |

| GIV-Gai inh | SMILES |
| --- | --- |
| 106 | CC1CCN(S(=O)(=O)c2ccc3c(c2)-c2oncc2CO3)CC1 |
| 127 | CCOC(=O)C1=C(CSc2nc3c(c(-c4cccs4)c2C#N)CCCC3)OC(N)=C(C#N)C1c1ccc(Cl)cc1 (centres undefined) |
| 107 | COc1ccc(/C=C2\C=C(c3ccccc3)N(c3ccc(N(C)C)cc3)C2=O)cc1Br |
| 102 | O=S(=O)(NC1CC1)c1cc(-c2nc(-c3ccc(Cl)cc3)no2)cs1 |
| 109 | Cc1cc(=O)oc2c3c(ccc12)OCN(c1ccc(Cl)cc1)C3 |
| 108 | O=C(C1CCN(S(=O)(=O)c2ccc(-c3noc(C4CC4)n3)cc2)CC1)N1CCOCC1 |
| 96 | CCOC(=O)C1CC/C(=C\c2ccccc2)C1=O (centres undefined) |
| 102 | O=C(NCC1CCCO1)C1CCN(S(=O)(=O)c2ccc3c(c2)CCCN3C(=O)C2CCC2)CC1 (centres undefined) |
| 99 | CCCN(C)S(=O)(=O)c1c(C)[nH]c(C)c1-c1nnc(C2CCC2)o1 |
| 106 | CCOC(=O)C1C(=O)NC(SCC(=O)Nc2ccccc2C)=C(C#N)C1c1ccccc1Cl (centres undefined) |
| 107 | CCCCNC(=O)CSc1nc(NC2CCCCC2)c2ccccc2n1 |
| 102 | O=C(NC1CCCc2ccccc21)c1ccc(NC(=O)c2nsc3ccccc23)cc1 (centres undefined) |
| 103 | Cc1cc(NC(=O)CCc2nc(CSc3nnc(-c4cccnc4)o3)no2)no1 |
| 107 | CCCc1nc2n(n1)N=C(c1ccccc1)CS2 |
| 108 | COc1ccc(NC(=O)c2cccc(Oc3ccnc(-c4cccc(C)c4)n3)c2)cc1OC |
| 105 | CCOC(=O)c1c(S(=O)(=O)N2CCC(C(=O)Nc3cc(OC)cc(OC)c3)CC2)c(C)n(C)c1C |
| 102 | Cn1c(=O)n(Cc2ccccn2)c(=O)c2cnc(-c3ccncc3)nc21 |
| 106 | CCC(C)Nc1nc(-c2ccccc2F)nc2ccccc12 (centres undefined) |
| 101 | CCOC(=O)C1=NN(c2ccc([N+](=O)[O-])cc2)C2C(=O)N(c3ccccc3Cl)C(=O)C12 (centres undefined) |
| 100 | CCCCN1C(=O)C(C)(C(=O)NC2CCN(Cc3ccccc3)CC2)Oc2cccnc21 (centres undefined) |
| 102 | CC1=C(C(=O)Nc2ccc(Br)cc2)C(c2ccc(Cl)cc2)NC(=O)N1 (centres undefined) |
| 103 | COc1ccc(NC(=O)NCc2ccc3c(c2)N(C(=O)c2ccc(C)cc2)CC3)cc1OC |
| 96 | COc1ccc(C2Nc3ccc(C)cc3[C@H]3OCCC[C@@H]23)cc1C (some centres undefined) |
| 108 | CCCCc1ccc(C2C3=C(CC(C)(C)CC3=O)N=C3c4ccccc4C(=O)C32)cc1 (centres undefined) |
| 98 | CCn1c(=O)c2sc(N3CCCC3)nc2n(CC(=O)Nc2ccc(OC)c(Cl)c2)c1=O |
| 117 | CCCCC1(C)NC(=S)N(c2ccc(Cl)cc2)N1 (centres undefined) |
| 100 | Cc1cc(C2CCCN2C(=O)C(C)C)on1 (centres undefined) |
| 107 | Cc1csc(-c2cc(S(=O)(=O)Nc3ccc(Cl)cc3F)cn2CC(=O)N2CCCC2)n1 |
| 109 | COc1ccc(C2=NN(C(=O)CSc3nnc(CNC(=O)c4cccc(F)c4)n3C)C(c3ccc(C)cc3)C2)cc1 (centres undefined) |
| 110 | CC(C)(C)C1CCc2oc3c(cc(NS(=O)(=O)c4ccc(F)cc4)c4ccccc43)c2C1 (centres undefined) |

| GIV-Gai inh | SMILES |
| --- | --- |
| 110 | CC(=O)Nc1cc2c(C)cc(=O)oc2c2c(Nc3ccccc3)coc12 |
| 107 | O=C(c1cc(N2CCOCC2)nc2ccccc12)N1CCN(c2cccc(Cl)c2)CC1 |
| 112 | Cc1nnc(SCc2nc(-c3ccccc3)oc2CSc2nnc(C)c(=O)[nH]2)[nH]c1=O |
| 111 | CCCOc1ccc(NC(=O)C2CC(=O)N(CC)C(=Nc3ccc4c(c3)OCO4)S2)cc1 (centres undefined) |
| 103 | NC(=O)C1CCN(c2nc(Cc3ccccc3)nc3sc4c(c23)CCCC4)CC1 |
| 100 | C#CCOc1ccc(C2Nc3c(C)cc(C)cc3[C@H]3OCCC[C@@H]23)cc1 (some centres undefined) |
| 101 | Cc1ccsc1C(=O)N1CCCC1c1c(C)noc1C (centres undefined) |
| 121 | O=[N+]([O-])c1cccc(S(=O)(=O)Nc2cc(Cl)c3oc4c(c3c2)CCCC4)c1 |
| 133 | CCOC(=O)CSc1nc2cc(C(=O)N3CCC4(CC3)OCCO4)ccc2c(=O)n1Cc1ccc2c(c1)OCO2 |
| 114 | CCCc1cc(C2CCCN2Cc2ccc(O)cc2)no1 (centres undefined) |
| 98 | Cc1nc2cc(-c3noc(-c4ccc(Cl)cc4Cl)n3)ccc2o1 |
| 95 | CCOc1ccc(NC(=O)N2CC(=O)N(CC(=O)NCc3cccc(Cl)c3)c3ccccc32)cc1 |
| 106 | CCOC(=O)c1ccc(N2C(=O)/C(=C/c3ccc(Cl)cc3)C=C2c2ccccc2)cc1 |
| 111 | Cc1ccccc1CS/C(Nc1ccccc1C)=C(\C#N)C(=O)NCc1ccco1 |
| 99 | NS(=O)(=O)c1ccc(CCNC(=O)c2ccc(Cn3c(=S)[nH]c4cc(C(=O)O)ccc4c3=O)cc2)cc1 |
| 116 | O=C(O)c1ccc(Cl)c(N2C(=O)C3C4c5ccccc5C(c5ccccc54)C3C2=O)c1 (centres undefined) |
| 110 | Cc1nn(-c2ccc(F)cc2)c2sc(C(=O)NCCCN3CCCC3)cc12 |
| 110 | COc1ccc(N2C(=O)C3C(C2=O)N2CCCN2C3c2ccccc2)cc1 (centres undefined) |
| 103 | COc1ccc(CCNC(=O)CSc2nc3n[nH]c(C)c3c(=N)n2-c2ccc(C)c(Cl)c2)cc1OC |
| 113 | CCOc1ccc(N/C(SCc2cccc([N+](=O)[O-])c2)=C(/C#N)C(=O)NCc2ccc3c(c2)OCO3)cc1 |
| 104 | COc1ccc(Cl)cc1S(=O)(=O)N1CCCC(C)(C(=O)NCc2cccc(F)c2)C1 (centres undefined) |
| 109 | COc1cc2c(cc1OC)C1(CCCC1)CN=C2c1ccc([N+](=O)[O-])cc1 |
| 98 | CCn1nnc2cc(-c3noc(-c4cnccn4)n3)ccc21 |
| 102 | O=C(Nc1cccc(OCc2cc(=O)n3cc(Cl)ccc3n2)c1)C1CCCCC1 |
| 119 | COc1ccc(-n2ncc3c(N4CCN(c5ccccc5OC)CC4)ncnc32)cc1 |
| 112 | CCOC(=O)c1c(C)oc2ccc(OCc3c(OC)ccc4cc(Br)ccc34)cc12 |
| 103 | CCC1CCCCN1S(=O)(=O)c1ccc(F)c(C(=O)Nc2ccccc2Br)c1 (centres undefined) |
| 103 | Cc1c(Cl)cccc1-n1c(SCC(=O)Nc2ccccc2C(F)(F)F)nc2[nH]ncc2c1=O |
| 117 | CCOc1ccc(N2C(=O)/C(=C\c3cccc(F)c3)S(=O)(=O)C2c2cccc([N+](=O)[O-])c2)cc1 (centres undefined) |
| 196 | CCOC(=O)C1=C(C)N=c2s/c(=C/c3ccc(N4CCN(C)CC4)o3)c(=O)n2C1c1ccc(F)cc1 (centres undefined) |

| GIV-Gai inh | SMILES |
| --- | --- |
| 109 | C=C1CC23CC1(O)CCC2C12C=CC(O)C(C)(C(=O)O1)C2C3C(=O)O (centres undefined) |
| 112 | COc1ccc(/C=c2\sc3nnc(-c4ccccc4Cl)n3c2=O)c(OC)c1 |
| 98 | Cc1ccc(C2C3=C(CC(C)(C)CC3=O)Nc3ccccc3N2CC(=O)N2CCOCC2)cc1 (centres undefined) |
| 99 | CCN(CC)CCCNC(=O)c1sc2ncnc(N3CCN(c4ccccc4F)CC3)c2c1C |
| 103 | Cc1nc(C)c(-c2nc(-c3ccc4c(c3)nnn4CCC(=O)N3CCCC3)no2)s1 |
| 112 | CCOc1ccc(CC(=O)Nc2ccc(Cl)c3cccnc23)cc1OCC |
| 105 | CC1CCC(C(C)C)C(OC(=O)c2cccc(N3C(=O)C4C5c6ccccc6C(c6ccccc65)C4C3=O)c2)C1 (centres undefined) |
| -62* | COCCCNc1c2c3c(cccc3n(C)c1=O)C(=O)c1ccccc1-2 |
| 109 | O=c1[nH]c2nc(-c3ccccc3)cn2[nH]c1=O |
| 101 | Cc1cccn2c(=O)c(C(=O)N3CCC(C)CC3)cnc12 |
| 102 | CC(C)NC(=O)c1ccc(-c2nc3cc(NS(=O)(=O)c4ccc(F)cc4)ccc3n2C)cc1 |
| 108 | CC1CCN(c2cc(N3CCN(C(=O)c4ccccc4)CC3)c([N+](=O)[O-])cc2F)CC1 |

Among those listed so far, these contain two or more sulfur atoms.
| GIV-Gai inh | SMILES |
| --- | --- |
| 103 | CC(=O)c1ccc(NC(=O)CSC2=C(C#N)C(c3cccs3)C3=C(CCCC3=O)N2)cc1 (centres undefined) |
| 111 | CCN1CCN(S(=O)(=O)c2cc(-c3nc(C)cs3)n(CC(=O)N3CCCCC3)c2)CC1 |
| 104 | Cc1cc(-c2cc(S(=O)(=O)N3CCN(C4CCCCC4)CC3)c(C)s2)n[nH]1 |
| 110 | C=CCOC(=O)C1=C(C)NC(SCC(=O)Nc2nccs2)=C(C#N)C1c1ccco1 (centres undefined) |
| 107 | CSc1sc(I)cc1/C=N/NC(=O)c1nnn(-c2nonc2N)c1-c1ccccc1 |
| 104 | CCC(=O)N1CCC(N(Cc2csc(-c3cccs3)n2)S(C)(=O)=O)CC1 |
| 98 | Cc1ccc(CNS(=O)(=O)c2cc(-c3cc(C(F)(F)F)on3)sc2C)cc1 |
| 127 | CCOC(=O)C1=C(CSc2nc3c(c(-c4cccs4)c2C#N)CCCC3)OC(N)=C(C#N)C1c1ccc(Cl)cc1 (centres undefined) |
| 102 | O=S(=O)(NC1CC1)c1cc(-c2nc(-c3ccc(Cl)cc3)no2)cs1 |
| 107 | Cc1csc(-c2cc(S(=O)(=O)Nc3ccc(Cl)cc3F)cn2CC(=O)N2CCCC2)n1 |
| 112 | Cc1nnc(SCc2nc(-c3ccccc3)oc2CSc2nnc(C)c(=O)[nH]2)[nH]c1=O |
| 99 | NS(=O)(=O)c1ccc(CCNC(=O)c2ccc(Cn3c(=S)[nH]c4cc(C(=O)O)ccc4c3=O)cc2)cc1 |

An excerpt; the hit share may differ from the screen's.
